Six1-Eya2 inh – qHTS Assay for Inhibitors of the Six1/Eya2 Interaction | Homeobox protein SIX1 (Homo sapiens) + Protein phosphatase EYA2 (Homo sapiens), … | 360,000 tested, 0.56% active | activity change, % (no concentration beside the values) | AlphaScreen GST-Six1/His-Eya2 binding, biochemical; active compounds read low; control for the full effect not named in the record; in the data active = activity change below about -65%; inconclusive = about -30% to -65%; inactive = above about -30%; note: % is set by controls: 0 for no effect and ±100 for the full control effect
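GST-Six1 + His-Eya2 (5X stock: 250/500 nM); Tris pH 8.0, 300 mM NaCl, 0.05% BSA, 0.02% Tween 20; GSH donor/Ni acceptor beads; 1 h 37 °C dark; AlphaScreen readout.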
TRPML1 agonist – qHTS for Agonists of the Human Mucolipin Transient Receptor Potential 1 (TRPML1). TRPML1-expressing cells, Ca2+ dye fluorescence, FDSS; host cell line not named in the record; reference of the full effect not given here. activation, % (test concentration not listed). 410,000 tested, 0.12% active. AID 624414, 2012; in the data active = activation above about 50%; inconclusive = about 30% to 50%; inactive = below about 30%; note: 0% is about no effect; the text of the record puts the active cut at 80%
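Tet-induced TRPML1-DL cells, 1,500 per well, cultured overnight, were loaded with a no-wash Ca2+ dye for 45–90 min. Calcium fluorescence was recorded on the FDSS for 110 s after compound addition, before the EC80 agonist (4 uM 54-4) was added.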
TRPV1 potentiator – HTS Assay for Compounds that Act as Potentiators of the Vanilloid Receptor 1. TRPV1-expressing cells, Fluo-8 calcium influx, capsaicin EC20 potentiation; host cell line not named in the record; control for the full effect not named in the record. potentiation, % at 8.33 µM. 320,000 tested, 0.02% active. AID 540277, 2011; active means potentiation above 80%; inconclusive means 30% to 80%; inactive means below 30%; note: 0% is about no effect
Target sequence (Q8NER1 whole entry, looked up): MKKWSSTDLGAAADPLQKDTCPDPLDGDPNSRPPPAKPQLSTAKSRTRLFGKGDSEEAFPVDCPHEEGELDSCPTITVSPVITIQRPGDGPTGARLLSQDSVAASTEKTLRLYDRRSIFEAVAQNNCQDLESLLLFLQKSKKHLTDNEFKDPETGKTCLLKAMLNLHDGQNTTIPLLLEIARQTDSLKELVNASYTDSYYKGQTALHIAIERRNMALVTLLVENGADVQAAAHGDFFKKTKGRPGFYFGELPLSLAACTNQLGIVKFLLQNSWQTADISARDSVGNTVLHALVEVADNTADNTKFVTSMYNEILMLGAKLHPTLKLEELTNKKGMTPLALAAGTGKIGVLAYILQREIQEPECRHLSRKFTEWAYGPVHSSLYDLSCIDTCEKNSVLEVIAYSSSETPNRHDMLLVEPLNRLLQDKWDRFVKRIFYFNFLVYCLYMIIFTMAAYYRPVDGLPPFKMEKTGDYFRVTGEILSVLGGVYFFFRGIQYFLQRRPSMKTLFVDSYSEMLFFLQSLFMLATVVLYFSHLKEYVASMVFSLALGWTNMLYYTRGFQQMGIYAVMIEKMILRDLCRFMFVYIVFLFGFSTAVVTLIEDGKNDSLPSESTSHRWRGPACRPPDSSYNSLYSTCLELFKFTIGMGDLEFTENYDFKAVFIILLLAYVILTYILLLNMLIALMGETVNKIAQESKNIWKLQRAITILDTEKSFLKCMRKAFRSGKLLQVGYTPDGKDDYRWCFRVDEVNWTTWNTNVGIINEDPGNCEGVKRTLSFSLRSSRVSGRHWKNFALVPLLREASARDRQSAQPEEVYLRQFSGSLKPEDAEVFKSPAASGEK
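Cells expressing TRPV1 were dye-loaded with Fluo-8 and read kinetically: 10 s baseline, 3 min after compound (agonist portion), then 2 min after EC20 capsaicin (allosteric enhancer portion). Calcium-bound dye fluorescence at 480/520 nm.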
D2 PAM – Beta-Arrestin HTS for Positive Allosteric Modulators of the Human D2 Dopamine Receptor: Potentiators; potentiation, % (concentration not given with the values); DiscoveRx D2 beta-arrestin cells, luminescence, 90 min; 100% = 57 uM dopamine signal; 360,000 tested, 0.23% active; active = potentiation of 50% or more; inconclusive = 30% to 50%; inactive = 30% or less;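 note: compound concentration not given in the record; tested on top of an EC20 dose of dopamine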
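PathHunter D2 cells, attached overnight at 37 deg C, received compound in DMSO plus dopamine at EC20 (50 nM final) for 90 min at 37 deg C. Beta-arrestin recruitment was read as luminescence after 1 h with detection reagent at ambient temperature.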
TRPML1 blocker – qHTS for Inhibitors of the Human Mucolipin Transient Receptor Potential 1 (TRPML1); TRPML1-inducible cells, Ca2+ dye fluorescence, FDSS; active compounds read low; inhibition of EC80 agonist-evoked calcium signal; activity change, negative = inhibition, % (no concentration beside the values); 390,000 tested, 0.02% active; AID 624415, 2012; in the data active means activity change below about -50%; inconclusive means about -30% to -50%; inactive means above about -30%;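 note: stimulus is agonist 54-4 at its EC80 concentration; % is set by controls: 0 for no effect and ±100 for the full control effect; compound concentration not given in the record; the text of the record puts the active cut at -80%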
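TRPML1-DL cells, Tet-induced overnight (~16 h, 37 °C) at 1,500 cells/well, were loaded with Ca8 no-wash dye plus quencher for 45-90 min at room temperature. Compounds were pinned during FDSS kinetic reading; agonist 54-4 at EC80 (4 uM final) then added.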
CtBP-E1A inh – qHTS Assay for Inhibitors of the CtBP/E1A Interaction; CtBP / adenovirus E1A interaction (AlphaScreen); AlphaScreen GST-E1A/His-CtBP binding, 1536-well; active compounds read low; control for the full effect not named in the record; activity change, % (concentration not given with the values); 340,000 tested, 0.49% active; in the data active means activity change below about -65%; inconclusive means about -30% to -65%; inactive means above about -30%; note: % is set by controls: 0 for no effect and ±100 for the full control effect
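AlphaScreen with 125 nM GST-E1A and 125 nM His-CtBP (5X stocks) in Tris pH 8.0, 300 mM NaCl, BSA, Tween 20, TCEP. Compounds preincubated 2 h at 37 deg C, then glutathione donor/nickel acceptor beads added for 1 h at 37 deg C in dark.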
* marks the source's active call; other numbers are inactive results; ? = inconclusive; / = no result given; & = joins results of further samples.

Order of results: Six1-Eya2 inh | TRPML1 agonist | TRPV1 potentiator | D2 PAM | TRPML1 blocker | CtBP-E1A inh
Cc1nc(C)c(-c2csc(Nc3cccc(O)c3)n2)s1
  -20.6 | 3.5 | 11.3 | -3.3 | -9.9 | -23.9
Cc1ccc2oc(C(=O)N(Cc3ccc(N(C)C)cc3)CC3CCCO3)c(C)c2c1 (centres undefined)
  ? | -0.3&1.5 | -2.1 | -9.5 | 6.4&2.0 | ?
COc1cc2c(cc1OC)C(c1cccc([N+](=O)[O-])c1)N(C(=O)c1ccc(F)cc1)CC2 (centres undefined)
  -24.8 | 1.5 | -17.6 | -1.8 | 57.3 | -14.9
COCCCNC1=C(C#N)C(=O)NC(c2cccs2)S1 (centres undefined)
  -0.4 | 0.1 | / | -7.3 | 0.1 | -7.9
Cc1ccc(Cn2cccc(NS(C)(=O)=O)c2=O)cc1
  -13.6 | -0.5 | 1.8 | 4.2 | -5.1 | 4.9
CNC(=S)N1CCN(CCNC2=CC(=O)CC(C)(C)C2)CC1
  14.1 | -0.4 | 9.4 | -1.2 | -7.1 | 5.8
Cc1nn(CC(=O)Nc2cccnc2)c(C)c1[N+](=O)[O-]
  10.0 | 0.3 | 10.2 | -6.2 | -11.8 | 10.2
CC(Sc1nccn1C)C(=O)NC1(C#N)CCCCC1 (centres undefined)
  5.7 | 0.5 | 12.3 | -4.6 | 20.5 | /
Cn1nnnc1SCC(=O)Nc1nc(-c2ccccc2)c(-c2ccccc2)o1
  -9.0 | 0.3 | 2.6 | 0.0 | 13.1 | -2.9
Cc1nnc(NCCc2ccccc2)c2ccccc12
  48.6 | -0.2 | 2.4 | -9.7 | 13.4 | 0.0

Additional compounds.
Order of results: Six1-Eya2 inh | TRPML1 agonist | TRPV1 potentiator | D2 PAM | TRPML1 blocker | CtBP-E1A inh
O=S(=O)(N/N=C\c1c(F)cccc1Cl)c1ccc(Cl)cc1
  -1.5 | -0.5 | ? | -18.0 | -1.3 | 8.9
CCOC(=O)c1nnn(-c2nonc2N)c1CSc1ccccc1
  6.2 | 0.6 | -9.3 | -0.2 | 8.8 | 4.2
CN(C(=O)c1ccc(NC(=O)Cc2ccc(NC(=O)C3CCCN(C(=O)C4CC4)C3)cc2)cc1)C1CCCC1 (centres undefined)
  13.8 | 1.5 | / | 4.3 | -7.4 | 5.2
CCS(=O)(=O)N1Cc2ccccc2CC1C(=O)N(C)CC(=O)Nc1ccc(F)c(F)c1F (centres undefined)
  5.0 | -0.6 | 14.4 | -9.1 | 10.3 | 8.0
C=CCC[C@H](Cc1ccc(F)cc1)C(=O)OC[C@H](Cc1c[nH]c2ccccc12)NC(=O)[C@@H](CC=C)CC(=O)N[C@@H](CO)Cc1ccccc1
  2.9 | 0.5 | / | -1.5 | -10.5 | 2.5
COc1ccccc1C(=O)N1CCN(C2CCN(Cc3ccccc3)CC2)CC1
  2.0 | 0.5 | -1.1 | 4.2 | 7.9 | -0.9
O=C(Cn1cnc2c(nnn2-c2ccccc2)c1=O)N1CCCc2ccccc21
  -0.8 | 0.0 | 23.8 | -4.4 | 1.3 | -20.4
Cc1cccc(NC(=O)C(CC(C)C)NC(=O)C2CCC(C)CC2)n1 (centres undefined)
  6.0 | / | -11.8 | -8.7 | / | -6.1
CCN(CC(=O)NCc1ccc(F)cc1)C(=O)c1ccc(Cl)cc1
  1.8 | 1.0 | -14.0 | -2.1 | 29.8 | /
Cn1nc(-c2ccccn2)nc2c(=O)n(C)c(=O)nc1-2
  -28.3 | 0.0 | 17.5 | -0.6 | 9.6 | ?

Six entries picked at random from those above:
Order of results: Six1-Eya2 inh | TRPML1 agonist | TRPV1 potentiator | D2 PAM | TRPML1 blocker | CtBP-E1A inh
Cc1nnc(NCCc2ccccc2)c2ccccc12
  48.6 | -0.2 | 2.4 | -9.7 | 13.4 | 0.0
CCN(CC(=O)NCc1ccc(F)cc1)C(=O)c1ccc(Cl)cc1
  1.8 | 1.0 | -14.0 | -2.1 | 29.8 | /
COc1ccccc1C(=O)N1CCN(C2CCN(Cc3ccccc3)CC2)CC1
  2.0 | 0.5 | -1.1 | 4.2 | 7.9 | -0.9
C=CCC[C@H](Cc1ccc(F)cc1)C(=O)OC[C@H](Cc1c[nH]c2ccccc12)NC(=O)[C@@H](CC=C)CC(=O)N[C@@H](CO)Cc1ccccc1
  2.9 | 0.5 | / | -1.5 | -10.5 | 2.5
Cc1ccc(Cn2cccc(NS(C)(=O)=O)c2=O)cc1
  -13.6 | -0.5 | 1.8 | 4.2 | -5.1 | 4.9
Cc1ccc2oc(C(=O)N(Cc3ccc(N(C)C)cc3)CC3CCCO3)c(C)c2c1 (centres undefined)
  ? | -0.3&1.5 | -2.1 | -9.5 | 6.4&2.0 | ?

Limited to TRPML1 blocker and D2 PAM, for some of the entries so far:
Molecule | TRPML1 blocker | D2 PAM
O=S(=O)(N/N=C\c1c(F)cccc1Cl)c1ccc(Cl)cc1 | -1.3 | -18.0
CCOC(=O)c1nnn(-c2nonc2N)c1CSc1ccccc1 | 8.8 | -0.2
CN(C(=O)c1ccc(NC(=O)Cc2ccc(NC(=O)C3CCCN(C(=O)C4CC4)C3)cc2)cc1)C1CCCC1 (centres undefined) | -7.4 | 4.3
CCS(=O)(=O)N1Cc2ccccc2CC1C(=O)N(C)CC(=O)Nc1ccc(F)c(F)c1F (centres undefined) | 10.3 | -9.1
C=CCC[C@H](Cc1ccc(F)cc1)C(=O)OC[C@H](Cc1c[nH]c2ccccc12)NC(=O)[C@@H](CC=C)CC(=O)N[C@@H](CO)Cc1ccccc1 | -10.5 | -1.5
COc1ccccc1C(=O)N1CCN(C2CCN(Cc3ccccc3)CC2)CC1 | 7.9 | 4.2
O=C(Cn1cnc2c(nnn2-c2ccccc2)c1=O)N1CCCc2ccccc21 | 1.3 | -4.4

Continued:
Order of results: Six1-Eya2 inh | TRPML1 agonist | TRPV1 potentiator | D2 PAM | TRPML1 blocker | CtBP-E1A inh
Cc1ccccc1C(=O)Nc1nnc([C@@H]2C[C@H](O)[C@@H](CO)O2)s1
  5.0 | -0.4 | / | -6.4 | / | -15.6
CSc1nsc(SC)c1C(N)=O
  -8.4 | -0.1 | 12.7 | -19.8 | 10.8 | /
COc1ccc(OCCCC(=O)Nc2ccc(N3CCOCC3)cc2)cc1
  -8.8 | -1.2 | -22.2 | -0.3 | -1.8 | /
Cc1cc(SCC(=O)N2CCCC2=O)nc2c(C)cccc12
  1.4 | -1.1 | 1.5 | -15.6 | 3.0 | -2.6
O=c1[nH]ncc(N2CCCCC2)c1Cl
  0.0 | 0.5 | 7.4 | 16.1 | 5.5 | 5.5
O=C1/C(=C/c2ccc([N+](=O)[O-])cc2)C=C(c2ccccc2)N1c1ccccc1
  -5.1 | 3.1 | 0.3 | -0.3 | 17.4 | -1.2
CCOc1ccc(-n2c(SC(C)C(=O)OC)nc3c(c2=O)SCC3)cc1 (centres undefined)
  -5.9 | 1.7 | / | 15.3 | 31.0 | 9.0
O=C1NC(=O)C(c2ccccc2)(c2ccc(Cl)cc2Cl)N1 (centres undefined)
  5.7 | -0.3 | / | -6.5 | -1.3 | 4.4
CC(C)(C)c1ccc(C(=O)NCCC(=O)N2CCN(c3ncccn3)CC2)cc1
  1.4 | 69.2* | 7.1 | -2.7 | -13.9 | -1.0
CCCN1CCc2c(sc(NC(=O)c3ccc(S(=O)(=O)N(C)c4ccccc4)cc3)c2C(N)=O)C1
  1.8 | 26.7 | ? | -11.5 | 3.1 | -2.5

(further entries)
Order of results: Six1-Eya2 inh | TRPML1 agonist | TRPV1 potentiator | D2 PAM | TRPML1 blocker | CtBP-E1A inh
CSCCC(NS(=O)(=O)c1ccc(Cl)cc1)C(=O)OCC(=O)N1CCOCC1 (centres undefined)
  2.3 | 2.5 | -6.7 | -10.6 | 29.5 | -3.6
CN1C2C=C3C(C#N)=C(N)C(C#N)(C#N)[C@@H](c4ccsc4)[C@@H]3C1CC2 (some centres undefined)
  -10.4 | -0.3 | -7.3 | 10.3 | -3.1 | -1.8
COc1ccc(/C=N/NC(=O)c2ccc3c(c2)OCO3)cc1
  4.2 | 2.5 | -15.2 | -10.7 | 2.7 | 0.0
Cc1ccc(NC(=S)N2CCC(C(N)=O)(N3CCCCC3)CC2)c(C)c1
  -17.0 | -0.3 | 21.3 | -2.0 | 4.3 | 31.1
CCCCc1nnc(SC(C)C(=O)Nc2nccs2)n1C (centres undefined)
  4.2 | -0.3 | 16.4 | 0.7 | -10.2 | 15.2
C/C(=N\NC(=O)c1ccn(C)n1)c1ccc(NC(=O)C2CCCC2)cc1
  1.4 | 0.6 | -10.2 | -4.6 | -13.9 | -4.5
CN(Cc1ccccc1)c1c([N+](=O)[O-])c(=O)n(C)c2ccccc12
  -15.0 | -0.7 | 0.7 | -16.7 | -6.9 | /
